Source: PubChem BioAssay (ICCB-Longwood Screening Facility, Harvard Medical School)
Ba CapD inh – CapD enzyme inhibition. purified CapD enzyme, fluorescence intensity read-out; stronger effect = lower value; some hits fall short of the stated cut. AID 492967. z-score (no concentration beside the values). 0.23% of 140,000 active;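 active means z-score under -4 in either of two replicates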;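 further: stock transfer was 100 nL into about 40 µL; score is relative to mean and spread of the plate; one replicate is shown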
AID504770 – growth inhibitors of E. coli YBA685 in a screen for V. cholerae RctB (chromosome II replication) inhibitors. E. coli YBA685 rctB-dependent plasmid, OD600 growth, 3 h; stronger effect = lower value. z-score (test concentration not listed). 0.27% of 130,000 active;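 active means z-score under -2 on both plates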;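 further: wells of about 30 µL received 100 nL stock; score is relative to mean and SD of the test wells; the first replicate is given; strong numbers were not always called active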
Starred values were filed as active, the others as inactive; / = not tested or not shown. Only part of the results is shown. The share of hits here may be higher or lower than overall.

mol | Ba CapD inh | AID504770
O=C(NCCCn1ccnc1)c1cc2nc(-c3ccc([N+](=O)[O-])cc3)cc(C(F)(F)F)n2n1 | -0.42 | /
NS(=O)(=O)c1ccc(N/C=C2/CCCCC2=O)cc1 | -1.7 | 0.7
OC1C2C3CC4C2C(O)C2C1C3C42 (centres undefined) | / | -0.95
COc1cccc(C2NC(=O)NC3=C2CCc2ccccc23)c1 (centres undefined) | 3.7 | 1.9
COc1ccc(Cl)cc1S(=O)(=O)N1CCN(C23CC4CC(CC(C4)C2)C3)CC1 | 0.34 | 0.4
COc1ccccc1CNC(=O)CSc1nc2ccccc2n1S(=O)(=O)c1ccccc1 | -0.59 | /
Cn1cc(/C=C2\SC(=NC3CCCCC3)NC2=O)cn1 | / | -0.65
CN(C)C1(CNC(=O)COc2ccc3oc4c(c3c2)CCCC4)CCCCC1 | / | -0.15

mol | Ba CapD inh | AID504770
O=C(c1ccccc1)c1ccc(C(=O)c2ccccc2)cc1 | 0.015 | -0.4
CN1CCC(OC(=O)c2ccc(F)cc2)CC1 | -0.26 | -1.4
CCOC(=O)c1ccccc1C(=O)N(NC(=O)C(O)(c1ccc(Cl)cc1)c1ccc(Cl)cc1)c1ccccc1 | 0.055 | /
NC(=O)c1c(NC(=O)CSc2nc3ccccc3o2)sc2c1CCC2 | -0.91 | /
O=C(NC(=S)N1CCN(Cc2ccccc2)CC1)c1ccccc1 | 0.095 | 1.6
N#CCNC(=O)c1ccc(-c2ccccc2)cc1 | 0.49 | 0.15
CN1CCC(N(C(=O)c2ccc(Cl)cc2Cl)C2CCN(C)CC2)CC1 | -0.4 | /
CCCCN(C)c1nnc(NC(=O)Nc2ccc(CC)cc2)s1 | 0.65 | -0.45

mol | Ba CapD inh | AID504770
O=C(c1ccc(F)cc1)C1CCN(S(=O)(=O)c2ccc(F)cc2)CC1 | / | -0.55
COC(=O)c1ccc(CN(c2ccc(OC)cc2)S(=O)(=O)c2cccc(C)c2)o1 | / | -0.05
COc1ccccc1-n1c(-c2ccc(F)cc2)coc1=O | -1.1 | -0.2
CC1=CC(=O)/C(=C\c2c(O)cc(C)oc2=O)C(=O)O1 | -0.59 | -0.3
CCOC(=O)NNc1ncc(C(F)(F)F)cc1Cl | -0.23 | 0.55
S=c1[nH]nc(-c2ccccc2)n1/N=C/C=C/c1ccco1 | -2.4 | 0.05
Cc1ccc2nc(Nc3ccccc3)nc(-c3ccccc3)c2c1 | 4.1 | -1.6
O=C1CN(C(=O)CSc2nnc(-c3ccccc3)n2-c2ccccc2)c2ccccc2N1 | / | -0.25

mol | Ba CapD inh | AID504770
CC1(C)CC(=O)C2=C(C1)OC(N)=C(C#N)C21C(=O)Nc2ccc(Br)cc21 (centres undefined) | -0.45 | /
CCCCN(C1CCN(C(C)=O)CC1)S(=O)(=O)c1csc(C(N)=O)c1 | -2 | 1.2
CCN(CC)c1cc(C)c2cc(NC(=O)c3ccco3)ccc2n1 | 1.8 | -0.15
Cc1nc2ccccn2c1/C(O)=C1\C(=O)C(=O)N(CCCN2CCOCC2)C1c1cccc(F)c1 (centres undefined) | -0.005 | 0.15
O=C(O)C(Cc1ccc(O)cc1)NC1CCS(=O)(=O)C1 (centres undefined) | -0.09 | -1.5
CCN1CCCC1CNC(=O)c1ccc2c(=O)n3c(nc2c1)CCCCC3 (centres undefined) | 0.17 | -0.25
O=c1[nH]c(=O)n([C@H]2CC(O)[C@@H](CO)O2)cc1Br (some centres undefined) | -0.46 | -0.45
Cc1ccccc1Cn1c(=O)n(CCC(=O)NCCc2ccccc2)c(=O)c2ccccc21 | 0.48 | 0

mol | Ba CapD inh | AID504770
Cc1ccc(NC(=O)CSCC(=O)N2CCN(c3ncccn3)CC2)c(C)c1 | / | -0.55
COC(=O)Nc1ccc(S(=O)(=O)N2CCC(C(=O)N3CCC(C)CC3)CC2)cc1 | -0.53 | /
Cc1noc2ncnc(NC(C)(C)CO)c12 | -0.11 | 0.35
O=C(NCCc1ccccc1)C1c2ccccc2C(=O)N1C1CC1 (centres undefined) | -0.18 | -0.5
O=C(O)c1ccc(N2N=C(/C=C/c3ccccc3)CC2c2ccccc2)cc1 (centres undefined) | 1.6 | /
CC(C)(C)C(=O)/C=c1\s/c(=C\c2ccco2)c(=O)n1CC(=O)Nc1ccc(S(=O)(=O)N2CCOCC2)cc1 | / | 0.15
O=C1CNC(=O)c2ccccc2N1 | 0.66 | -0.1
CCOC(=O)C1=C(C)OC(N)=C(C(=O)OCC)C1c1ccncc1 (centres undefined) | / | 0.05

Full records as entered above. Order of screens: Ba CapD inh, AID504770
Profile of CCOC(=O)C1=C(C)OC(N)=C(C(=O)OCC)C1c1ccncc1 (centres undefined) → /, 0.05
Profile of Cc1noc2ncnc(NC(C)(C)CO)c12 → -0.11, 0.35
Profile of COC(=O)Nc1ccc(S(=O)(=O)N2CCC(C(=O)N3CCC(C)CC3)CC2)cc1 → -0.53, /
Profile of O=C(O)c1ccc(N2N=C(/C=C/c3ccccc3)CC2c2ccccc2)cc1 (centres undefined) → 1.6, /

Remaining list, next part:
mol | Ba CapD inh | AID504770
COc1cccc(C2=N/C(=C\c3ccccc3OC)C(=O)N2c2ccc(Br)cc2)c1 | -0.52 | /
CO/N=C\Cc1snc(Sc2ncc(C(F)(F)F)cc2Cl)c1C#N | -0.27 | /
CCOC(=O)N1CCN(C(=O)c2ccco2)CC1 | 0.21 | -0.75
CCCN(C(=O)Cc1c(C(=O)O)n(CC)c2ccccc12)c1cccc(Cl)c1 | 51 | -0.3
COc1cccc2cc(C(=O)Nc3ccc(N4CCNCC4)cc3)c(=O)oc12 | / | -0.65
COc1ccc(-c2cc(C(F)(F)F)n3nc(C(=O)NCc4ccco4)cc3n2)cc1OC | -0.17 | /
O=C(c1ccccc1)c1c[nH]c2ccccc12 | -0.2 | -0.9
CCCCNC(=O)c1ccc(CS(=O)c2ccccc2C)o1 (centres undefined) | -0.35 | -0.05

Copied from the list:
`N#CCNC(=O)c1ccc(-c2ccccc2)cc1` – AID504770: 0.15
`CCN1CCCC1CNC(=O)c1ccc2c(=O)n3c(nc2c1)CCCCC3` (centres undefined) – AID504770: -0.25

Further structures follow:
mol | Ba CapD inh | AID504770
O=C(NC1CCN(C(=O)c2ccco2)CC1)C1CCC1 | -0.21 | -0.8
COC(=O)c1sccc1NC(=O)CSCCc1ccncc1 | 0.36 | 0.5
COc1ccc(CN(Cc2ccco2)C(=O)COc2ccccc2)cc1 | 0.3 | -0.7
O=c1c2ccccc2nc(SCc2ccc(Cl)cc2)n1Cc1cccs1 | 0.65 | -0.4
CC(NC(=O)NC12CC3CC(CC(C3)C1)C2)C(=O)O (centres undefined) | / | -0.05
CCC(c1nnc(SCC(=O)N(CC)c2ccccc2)o1)N(C)C (centres undefined) | / | -0.2
CN(C)c1nc(C(F)(F)F)cs1 | / | -0.35
COc1ccc(NC(=O)C2Cc3ccccc3C(=O)O2)cc1 (centres undefined) | -0.22 | -0.5

mol | Ba CapD inh | AID504770
S=C=Nc1ccccn1 | / | -2
CC(C)(C)C(=O)Nc1nc2c(s1)CN(Cc1ccccc1)CC2 | / | 0
CCC12C=CCN3CCC4(c5ccc(OC)cc5NC4C(O)(C(=O)OC)C1OC(C)=O)C32 (centres undefined) | / | -0.75
Cn1cc(I)c(C(=O)O)n1 | -0.7 | 1.9
O=C(c1ccccc1O)N1CCC(c2c[nH]c3ccccc23)CC1 | -0.57 | /
CCn1c2ccccc2c2cc(N3C(=O)C=CC3=O)ccc21 | 1.5 | -0.5
O=C(NC(=S)Nc1ccc(N=Nc2ccccc2)cc1)c1ccccc1 | 0.34 | /
C/C(=N\N1CCN(C)CC1)C1=C(O)c2ccccc2C1=O | -0.83 | 0.05

mol | Ba CapD inh | AID504770
N#CC1=C(c2ccc(Oc3cccc(C(F)(F)F)c3)cc2)NC(=O)CC1 | -0.18 | /
O=S(=O)(c1ccc(NCCSCc2ccco2)nc1)N1CCCC1 | / | -0.2
Cc1ccc(CN2C(=O)N/C(=C\c3cn(CC(=O)N4CCOCC4)c4ccccc34)C2=O)cc1 | 0.66 | -0.35
COC(=O)CN1C(=O)C2(C(C(=O)OC)=C(N)Oc3ccccc32)C2=C1CCCC2=O (centres undefined) | / | -0.4
Cc1ccc(Cn2ccc(-c3ccccc3OCc3ccc(Cl)cc3)n2)cc1 | -0.58 | /
O=C1/C(=C/c2ccc(-c3ccc(Br)cc3)o2)C=C(c2ccccc2)N1c1ccc(Nc2ccccc2)cc1 | -0.38 | /
COc1ccc(N2C(=O)/C(=C/c3ccc(OCc4ccc(C(=O)O)cc4)cc3)NC2=S)cc1 | -1.3 | /
CCOC(=O)C1=C(C)Nc2ccccc2N=C1NC(=O)c1ccccc1C | / | -0.55

mol | Ba CapD inh | AID504770
CNS(=O)(=O)c1c(I)ccc2ccccc12 | 0.53 | -0.15
O=C(Nc1ccncc1)OCCc1ccccn1 | / | 0.6
O=C(OCc1ccccc1)C1=NNC2C(=O)N(c3ccccc3)C(=O)C12 (centres undefined) | 6 | 0.55
Cn1c(C(=O)OC(C(=O)NCc2ccccc2)c2ccccc2)cc2sccc21 (centres undefined) | / | 1.4
Cc1ccc(C(=O)c2nn(-c3ccccc3)c3nc4ccccc4nc23)cc1 | -0.28 | /
CC1Cn2cc(C(=O)NCc3ccccc3)c(=O)c3c(Cl)ccc(c32)O1 (centres undefined) | 17 | -0.6
CC(C)(C)c1nc(Sc2ccc(C(F)(F)F)cn2)n[nH]1 | -0.79 | 0.4
CC(=O)NC1=NN(C(C)=O)C(c2ccccc2)S1 (centres undefined) | -0.26 | -1.4

mol | Ba CapD inh | AID504770
COC(=O)C(C#N)C(c1cccnc1)c1c(C)[nH][nH]c1=O (centres undefined) | / | -1.5
COc1cccc(CN(C)C(=O)CNC(N)=O)c1OC | / | -0.4
CC(=O)N1CCc2cc(S(=O)(=O)Nc3cc(C)ccc3C)ccc21 | -0.61 | -0.7
NC(=O)c1cc(SC(F)(F)F)cc(SC(F)(F)F)c1 | -0.24 | -0.45
COc1ccc(-n2nc(C(=O)N(C)C)nc2-c2ccccc2)cc1 | / | 1.4
c1csc(-c2nc(SCC3COc4ccccc4O3)n[nH]2)c1 (centres undefined) | / | 2.2
N#CC1=C(N)SC(N)=C(C#N)C1c1ccc(O)cc1 | / | -2.1
CC1Cc2ccccc2N1C(=O)COC(=O)c1ccccn1 (centres undefined) | / | -0.4

mol | Ba CapD inh | AID504770
O=C(c1cccc(Cl)c1)N1N=C(C2CCCCC2)CC1(O)C(F)(F)F (centres undefined) | -0.61 | /
CC1CCN(C(=O)CCNS(=O)(=O)c2cccc3nsnc23)CC1 | 0.3 | /
O=C1CCCc2cc(S(=O)(=O)N3CCCN(Cc4ccccc4Cl)C3)ccc2N1 | -1 | -0.1
COc1cc(C(=O)OCCCN2CCCN(CCCOC(=O)c3cc(OC)c(OC)c(OC)c3)CC2)cc(OC)c1OC | -0.66 | /
S=C(NCc1ccco1)Nc1ccc(Oc2ccc(Cl)cc2)cc1 | -0.79 | /
CCOc1ccc(-n2c(C)nc3cc(C(=O)NCCN4CCOCC4)ccc32)cc1 | 0.43 | -0.3
COc1ccc(S(=O)(=O)NCc2ccc(C(=O)N3CCN(C)CC3)cc2)cc1 | -0.23 | -0.45
CCN1CCN(CCCNC(=O)C2c3cc(OC)c(OC)cc3C(=O)N(C)C2c2cccnc2)CC1 (centres undefined) | -0.86 | 0.85

mol | Ba CapD inh | AID504770
Cn1c(=O)c2c(ncn2Cc2cccc(F)c2)n(C)c1=O | 0.29 | /
CC(=O)N1CCc2c(sc(NC(=O)c3ccc(Br)s3)c2-c2nc3ccccc3s2)C1 | / | -0.05
CCOC(=O)c1csc(Nc2ccncc2)n1 | -1.1 | 1.1
Cc1cc(S(=O)(=O)NC23CC4CC(CC(C4)C2)C3)ccc1-n1cnnn1 | / | -0.35
COc1ccc(-n2nc(C(=O)NCC3CCCO3)c3c4ccccc4n(C)c3c2=O)cc1 (centres undefined) | -1.1 | -0.35
c1ccc(C(Cc2nc(-c3cccnc3)no2)c2ccccc2)cc1 | 0.54 | -1.3
Cc1cc(Cl)ccc1Oc1nc(-c2ccccc2)ncc1S(C)(=O)=O | -0.4 | /
Cc1cc2c(cc1C)-c1c(ssc1=Nc1ccc(F)cc1)C(C)(C)N2 | -0.65 | /

mol | Ba CapD inh | AID504770
COc1ccc2c3c(ccc2c1)-c1[nH]c2ccccc2c1CC3 | 54 | -0.35
CCN(CC(=O)Nc1ccc(NC(C)=O)cc1)CC(=O)Nc1cc(C)on1 | / | 1.1
O=C(CCCSc1nnc(-c2ccco2)n1-c1ccccc1)c1ccccc1 | / | 2.2
Cc1ccc(S(=O)(=O)N2c3cccc4cccc(c34)S2(=O)=O)c([N+](=O)[O-])c1 | -0.59 | /
CC1(C)N=C(SCC(=O)Nc2ccccc2)C(c2ccccc2)=N1 | 14 | 0.75
CCC(c1nnnn1C(C)(C)CC)N1CCN(c2ccccc2)CC1 (centres undefined) | / | 2
Cc1ccc(C(=O)CSc2nnc(-c3snnc3C)n2C2CC2)cc1 | 1.6 | -0.2
COCc1cc(=O)n2[nH]c(C)cc2n1 | 13 | /

mol | Ba CapD inh | AID504770
CCSc1ccccc1C(=O)Nc1cccc(OC)c1 | -0.18 | -0.45
CCOC(=O)c1ccccc1NS(C)(=O)=O | 1.4 | -0.35
NC(=O)C1CCN(C(=O)c2ccc(Oc3ccccc3)cc2)CC1 | -0.35 | -0.6
NS(=O)(=O)c1ccc(NC(=O)CSc2nc3sc4c(c3c(=O)[nH]2)CCC4)cc1 | / | 0.75
O=C(Cc1ccccc1)N/N=C/c1ccc(O)cc1 | 0.2 | 1.6
O=C(c1ccccc1S(=O)(=O)NCC(O)COc1ccc(N2C(=O)C3CC=CCC3C2=O)cc1)N1CCOCC1 (centres undefined) | 0.3 | /
C=CCc1cccc2cc(C(=O)NCC3CCCO3)c(=O)oc12 (centres undefined) | 33 | -0.6
CCC(=O)Nc1cccc(C(=O)N/N=C/c2cc(Cl)cc(Cl)c2Cl)c1 | 0.68 | /
O=C1CSc2nnc(-c3ccccc3Br)n2N1 | -0.17 | -0.95
